CSC inhib: cancer stem cell inhibition; inhibition, % at 7.5 µM; AID 2717; cancer stem cell-like cells viability, luminescence; 300,000 compounds, 1.1% hits;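 active = mean at 75% or more and at least half the replicates too; inconclusive = mean and replicates disagree; tested in HMLE shEcad cells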;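 note: 0% = median of negative and 100% = median of positive control wells; the first replicate is given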
UUG fidelity: alters start codon recognition fidelity in yeast. S. cerevisiae UUG-firefly luciferase reporter, luminescence/redox ratio. activity score, % at 18.7 µM. 350,000 compounds, 0.13% hits;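 active = replicate mean at a twofold rise or more, about +100% in these data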;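 note: firefly luciferase made from a UUG start codon reports start codon fidelity; reporter light over untreated wells divided by growth signal over untreated wells; some hits fall short of that in this replicate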
eIF4H FP inh: inhibitors of RNA binding by human eIF4H. Q15056. AID 2012. inhibition, % at 35 µM. eIF4H fluorescence polarization binding assay. 290,000 compounds, 0.94% hits;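 active = 50% or more with normal probe brightness, or confirmed in later tests; inconclusive = above 50% with abnormal brightness, or retests that disagree; inactive = below 50% or failed in later tests; about a fifth of its hits are not listed in these tables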;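 note: calls also rest on retests at 20 µM and on dose response follow-up; 0% = protein and probe with vehicle and 100% = probe without protein; strong numbers were not always called active; many hits fall short of the cut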
MT1-MMP act inh: inhibitors of human MT1-MMP activation; P50281; HT1080 RFP-PRO-GFP cells, GFP/RFP ratio fluorescence, overnight; percent of plate control window, DMSO zero; GFP/RFP ratio change, % at 20 µM; 360,000 compounds, 0.061% hits; AID 651647;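 active = GFP/RFP ratio change of at least 30% with cell ATP level not reduced by more than half and red fluorescence within 50% of control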; note: strong numbers were not always called active
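Assay system: RFP-PRO-GFP reporter HT1080 cells; read-out basis: GFP/RFP fluorescence ratio; benchmarks: DMSO wells and RFP-L50D-GFP cells; doses: 20 µM single dose, 1% DMSO; schedule: overnight cell settling, then overnight compound exposure, 37 °C, 5% CO2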
PABP FP inh: blocks human PABP binding to poly(A) RNA | P11940 | AID 2014 | fluorescence polarization | 290,000 compounds, 1% hits | inhibition, % at 35 µM;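 active = 50% or more with normal probe brightness, or confirmed in later tests; inconclusive = above 50% with abnormal brightness, or retests that disagree; inactive = below 50% or failed in later tests; about a fifth of its hits are not listed in these tables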;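 note: calls also rest on retests at 20 µM and on dose response follow-up; controls were probe without protein and protein plus probe with vehicle; some compounds called inactive have numbers as strong as hits; many hits fall short of the cut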
Target sequence (P11940 whole entry, looked up): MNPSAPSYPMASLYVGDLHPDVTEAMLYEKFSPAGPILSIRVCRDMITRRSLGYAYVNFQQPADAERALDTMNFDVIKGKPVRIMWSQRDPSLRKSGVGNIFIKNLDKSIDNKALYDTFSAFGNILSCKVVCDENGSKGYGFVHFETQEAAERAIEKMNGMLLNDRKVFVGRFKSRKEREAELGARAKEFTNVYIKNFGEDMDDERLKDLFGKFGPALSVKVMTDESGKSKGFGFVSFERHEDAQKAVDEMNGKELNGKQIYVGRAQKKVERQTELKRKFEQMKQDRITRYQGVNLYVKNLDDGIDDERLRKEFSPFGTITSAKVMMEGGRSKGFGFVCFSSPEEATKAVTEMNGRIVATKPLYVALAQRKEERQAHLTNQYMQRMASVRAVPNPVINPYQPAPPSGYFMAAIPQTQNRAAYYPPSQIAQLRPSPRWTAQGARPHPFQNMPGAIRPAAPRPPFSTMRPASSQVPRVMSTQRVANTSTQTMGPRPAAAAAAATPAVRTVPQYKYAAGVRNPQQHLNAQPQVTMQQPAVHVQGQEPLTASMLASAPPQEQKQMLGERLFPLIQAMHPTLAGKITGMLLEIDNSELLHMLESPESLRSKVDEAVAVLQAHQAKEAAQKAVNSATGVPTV
Rce1 inhib: inhibitors of yeast Ras-converting enzyme; yeast membranes, quenched prenylated peptide cleavage fluorescence; calls only; 290,000 compounds, 0.27% hits; AID 2563;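 active = fall in fluorescence gain of 50% or more versus controls, with final raw signal at or below 3038400; inconclusive = same 50% fall but final raw signal above 3038400; inactive = fall in fluorescence gain under 50%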;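 note: plate controls were neutral control wells for no effect and wells lacking membranes for full effect; tested at 10 µM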
Target sequence (Q03530 whole entry, looked up): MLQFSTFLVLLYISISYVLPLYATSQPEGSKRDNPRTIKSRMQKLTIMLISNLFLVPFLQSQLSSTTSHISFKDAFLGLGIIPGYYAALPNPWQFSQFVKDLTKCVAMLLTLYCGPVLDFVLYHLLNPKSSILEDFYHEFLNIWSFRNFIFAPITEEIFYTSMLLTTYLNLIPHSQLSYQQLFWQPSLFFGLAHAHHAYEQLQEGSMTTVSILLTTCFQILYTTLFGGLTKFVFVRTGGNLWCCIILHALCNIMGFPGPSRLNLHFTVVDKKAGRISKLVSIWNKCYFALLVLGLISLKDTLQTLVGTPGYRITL
Env fusion inh: HIV envelope-mediated fusion inhibition | HeLa-JRFL Env/CEM21 cell fusion, luciferase | inhibition, % at 12.3 µM | 360,000 compounds, 1.1% hits;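 active = mean replicate inhibition score of at least 50 and every replicate individually at or above 50; inconclusive = only one of the two criteria met; inactive = mean below 50 and not all replicates reaching 50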;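 note: 0% = plate neutral controls and 100% = maraviroc near 300 nM; one replicate is shown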
eIF4H FP inh retest: further read-out of eIF4H FP inh, marked with its call; inhibition, %; compound at 20 µM; confirmation average;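 mean of two retest wells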
PABP FP inh retest: second read-out of PABP FP inh, no call of its own (marks repeat the call); inhibition, %; compound at 20 µM; confirmation repeats;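 mean of two retest wells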
MT1-MMP act inh RFP: recorded beside MT1-MMP act inh, whose call it bears; RFP signal change, %; measured here: RFP expression control read;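 0 = vehicle wells; hits needed this value within 50% of zero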
* marks the source's active call; other numbers are inactive results; i = inactive; u = inconclusive; x = no result given. This is a subset; the hit share may differ from the screen's.

The first 7 records (preview)
SMILES	CSC inhib	UUG fidelity	eIF4H FP inh	MT1-MMP act inh	MT1-MMP act inh RFP	PABP FP inh	Rce1 inhib	Env fusion inh	others
COC(=O)C(NC(C)=O)(Nc1cc(C)ccn1)C(F)(F)F (configuration not stated)	-12	-10	-4	3	8	-6	i	-11
CC(C)C(=O)NCCc1nc2ccccc2n1CCCOc1ccc(Cl)cc1	x	-5	-11	2	-7	-11	i	x
CN(CC(=O)NC1CCCC1)S(=O)(=O)c1cccc(Cl)c1	3	-2	x	2	1	x	x	-14
O=C(CNC(=O)c1[nH]cnc1C(=O)N[C@@H](Cc1ccccc1)C(=O)OCc1ccccc1)OCc1ccccc1	0	-5	9	2	4	3	i	-9
O=C(Nc1c[nH]c2c(Cl)cccc2c1=O)N1CCN(c2ccccn2)CC1	-14	-8	0	-1	5	6	i	-6
O=C(OCC(=O)N1CCc2ccccc21)c1ccccc1F	7	-5	60	1	5	-6	i	-35	eIF4H FP inh retest=-7;PABP FP inh retest=11
COc1cc(/C=C2/SC(=S)N(c3c(C)n(C)n(-c4ccccc4)c3=O)C2=O)ccc1O	9	x	63	11	67	20	i	-18	eIF4H FP inh retest=46;PABP FP inh retest=31

The whole of this part, from the start:
SMILES	CSC inhib	UUG fidelity	eIF4H FP inh	MT1-MMP act inh	MT1-MMP act inh RFP	PABP FP inh	Rce1 inhib	Env fusion inh	others
COC(=O)C(NC(C)=O)(Nc1cc(C)ccn1)C(F)(F)F (configuration not stated)	-12	-10	-4	3	8	-6	i	-11
CC(C)C(=O)NCCc1nc2ccccc2n1CCCOc1ccc(Cl)cc1	x	-5	-11	2	-7	-11	i	x
CN(CC(=O)NC1CCCC1)S(=O)(=O)c1cccc(Cl)c1	3	-2	x	2	1	x	x	-14
O=C(CNC(=O)c1[nH]cnc1C(=O)N[C@@H](Cc1ccccc1)C(=O)OCc1ccccc1)OCc1ccccc1	0	-5	9	2	4	3	i	-9
O=C(Nc1c[nH]c2c(Cl)cccc2c1=O)N1CCN(c2ccccn2)CC1	-14	-8	0	-1	5	6	i	-6
O=C(OCC(=O)N1CCc2ccccc21)c1ccccc1F	7	-5	60	1	5	-6	i	-35	eIF4H FP inh retest=-7;PABP FP inh retest=11
COc1cc(/C=C2/SC(=S)N(c3c(C)n(C)n(-c4ccccc4)c3=O)C2=O)ccc1O	9	x	63	11	67	20	i	-18	eIF4H FP inh retest=46;PABP FP inh retest=31
Cc1c(C(=O)O)c(-c2ccccc2)nn1-c1ccccc1	-6	-12	-5	6	9	4	i	x
COc1cc(CN2CCCC(CO)(Cc3cccc(Cl)c3)C2)cc(OC)c1O (configuration not stated)	-9	3	0	2	-1	0	i	-9
CCCC(=O)N1CCN(c2ccc(NC(=O)C(C)(C)C)cc2Cl)CC1	6	1	4	1	2	0	i	5
CCCC(=O)Nc1ccccc1-c1nnn(CC(=O)Nc2ccc(OC)cc2)n1	-4	-14	1	6	-7	4	i	x
CCOc1ccc2c(c1)C(c1cccs1)=NNC(c1cccnc1)=N2	7	-3	2	3	1	-5	i	8
O=C1C(=O)N(CCCO)C(c2ccccc2)/C1=C(\O)c1ccc(Br)cc1 (configuration not stated)	-6	-5	1	-4	5	-2	i	-49
C(=N\NC1=NCCN1)/c1ccncc1	-12	-6	-3	0	8	1	i	5
Cc1noc(C)c1CSCC(=O)Nc1ccc(Br)cc1Cl	4	x	x	-4	-1	x	i	1
COc1ccc(-n2nnnc2-c2cn(C)nc2C(F)(F)F)cc1	8	5	-3	4	1	-12	i	x
CCN1C[C@@H]2[C@@H]3C(=O)N(C)C(=O)[C@@H]3[C@](Cc3ccccc3)(C1=O)N2C(=O)c1ccc(Cl)cc1	x	7	x	0	5	x	x	-4
CCn1c(C)nnc1SCC(=O)Nc1ccccc1OC	0	-9	-3	1	-3	3	i	-13
COc1cccc(N2C(=O)C3CCCN3C2c2ccc(Cl)cc2)c1 (configuration not stated)	9	11	-5	-3	-1	1	i	-11
O=C(O)c1ccccc1-c1ccc(C=c2sc3nc4cc(Br)cnc4n3c2=O)o1	x	7	x	-14	6	x	x	-18
Cc1cc(C)cc(N(CCC#N)C(=O)COC(=O)CCc2c[nH]c3ccccc23)c1	-9	-5	x	-4	0	x	x	9
CCCCN(Cc1ccco1)C(=O)c1cc2c(=O)[nH]c3ccc(C)cc3c2s1	17	-8	-4	4	-16	-5	i	-73
Cn1c2c(c(O)c(-c3ccccc3)c1=O)C(=O)CC(C)(C)C2	1	x	1	8	7	6	i	-10
Cc1ccc(CS(=O)(=O)CCC(=O)NCCc2ccccc2)cc1	-16	-4	-7	1	1	2	i	15
CC(=O)Nc1ccc(C(=O)N2CCCCC2c2cc(C(=O)NC(C)C)no2)cc1 (configuration not stated)	x	-8	x	0	4	x	x	-15
CCOC(=O)CSc1nnc(CSc2nc3ccccc3s2)n1C	-17	-31	-1	0	3	-7	i	x
CCc1ccccc1NC(=O)c1cc(-c2ccco2)on1	-2	0	0	2	-2	9	i	-1
c1ccc(-n2c(Sc3cnccn3)nnc2-c2cccs2)cc1	-9	x	-1	1	2	3	i	-46
COc1cc(NC(=O)CSc2cc(C)c3cc(C)cc(C)c3n2)c(C(=O)O)cc1OC	-6	-5	-4	3	6	8	i	-4
COc1ccc(N2C(=O)CSC2c2cccc(OC)c2OC)cc1 (configuration not stated)	-4	x	8	-1	2	-10	i	x
COc1ccc(C2C(C(=O)NCCN(C)C)c3cc(OC)c(OC)cc3C(=O)N2C)cc1OC (configuration not stated)	-20	-3	0	2	0	20	i	-13
COC(=O)C1=CN(C)C=C(C(=O)OC)C1c1ccc(Cl)cc1Cl	-6	x	12	-13	-8	-2	i	4
COc1ccc(N2C(=NC(=O)c3ccccc3)SC3CS(=O)(=O)CC32)cc1 (configuration not stated)	-1	-5	-11	1	1	-5	i	26
CC1=C(C(=O)N(C)C)C(c2cccc(Cl)c2)NC(=O)N1 (configuration not stated)	-9	-11	1	-3	10	13	i	x
O=C(NC1CCC(O)CC1)c1cc(-c2ccc(Cl)cc2)nc2ccccc12 (configuration not stated)	x	-10	x	-1	-3	x	x	-6
CCOC(=O)c1c(N)n[nH]c1-c1ccc(OC)cc1	-13	-20	-7	-3	1	-17	i	-44
CCc1cc(CC)c(/C=N/NC(N)=O)c(CC)c1/C=N/NC(N)=O	-7	-3	-15	-9	-2	-12	i	-27
COC(=O)C1N[C@@H]([C@@H](NC(=O)COc2ccccc2)C(=O)NCc2ccccc2)SC1(C)C (some centres not stated)	-3	-9	x	-2	-6	x	i	-26
O[C@H]1CN(Cc2cccs2)[C@@H](c2ccccc2)C[C@@H]1n1cc(C2CC2)nn1	x	-3	x	-1	-2	x	x	-105
CCOc1ccc(-c2c(C(=O)N/N=C/c3ccsc3)nnn2-c2nonc2N)cc1	-3	-15	6	-2	7	6	i	-4
CCN1CCN(c2ccc([N+](=O)[O-])cc2S(=O)(=O)N2CCOCC2)CC1	-6	-12	-4	-2	2	-8	i	11
CCOC(=O)Nc1ccc(Cc2ccncc2)cc1	u	x	0	-2	-8	-4	i	4
O=C1CSc2ccc(C(=O)N3CCN(c4ccccn4)CC3)cc2N1	x	-5	3	0	-2	4	x	0
CC(/C=C/c1ccco1)=N/NC(=O)C1COc2ccccc2O1 (configuration not stated)	-7	-8	-1	0	4	-5	i	-4
CC(=O)NNC(=S)NCCc1ccccc1	2	-23	-6	5	7	6	i	-5
Cc1ccc(/C=N\Nc2cn[nH]c(=O)c2Cl)cc1	-3	-18	-19	4	9	-8	i	-24
N#C/C(=C(/O)COC(=O)COc1cccc(Br)c1)c1nc2ccccc2[nH]1	-4	-15	13	-8	2	7	i	-6
COC(=O)c1ccc(COc2ccc(C(=O)c3ccccc3)cc2)o1	2	-14	5	5	-1	0	i	-8
O=C(NC1CCCC1)C1CCC(=O)N1CCc1ccccc1 (configuration not stated)	-9	-8	-10	6	3	-4	i	-8
Cn1cc([N+](=O)[O-])c(C(=O)Nc2ccc(C3CCCCC3)cc2)n1	117*	x	-1	-9	-14	-2	i	-147
CCCN1C2CCCC1CC(NC(=S)Nc1cccc(C)c1C)C2 (configuration not stated)	4	-25	0	-3	5	3	i	8
CNC(=O)c1ccc(NC(=O)Cc2ccc(S(=O)(=O)N3CCOCC3)s2)cc1	-9	-12	x	-1	0	x	i	-32
COc1cc(NC(=O)Cn2nc(C(F)(F)F)c3c2CCCC3)cc(OC)c1OC	-17	-2	-5	3	-15	1	i	x
COc1ccc(NC(=O)Cn2c(=O)n(Cc3ccco3)c(=O)c3ccccc32)cc1	17	1	1	3	0	-4	x	-16
COc1ccccc1N1CCN(S(=O)(=O)c2ccc3c(c2)NC(=O)C(C)C(=O)N3)CC1 (configuration not stated)	-7	-13	-5	3	-2	1	i	-36
C=CCn1c(=O)c2ccccc2n2c(SCC(=O)Nc3sc(C(=O)N(CC)CC)c(C)c3C(=O)OCC)nnc12	10	x	5	-7	-5	6	i	9
O=C(CCSCc1ccccc1Cl)NCc1cccs1	-5	-2	-2	4	4	2	i	-2
CC(C)(C)c1ccc(C(=O)N2CCN(c3nc4ccccc4o3)CC2)cc1	x	3	-8	-6	-29	0	i	42
Cc1c(Cl)c([N+](=O)[O-])nn1CCCC(=O)Nc1cccc(Cl)c1	3	9	1	20	1	2	i	16
COc1cc(Cl)c(CNC[C@H]2O[C@@H](n3ccc(=O)[nH]c3=O)[C@H](O)[C@@H]2O)c(Cl)c1O	x	-10	x	1	3	x	x	-54
(cont.)
SMILES	CSC inhib	UUG fidelity	eIF4H FP inh	MT1-MMP act inh	MT1-MMP act inh RFP	PABP FP inh	Rce1 inhib	Env fusion inh	others
Cc1ccccc1N=Cc1cc2c(cc1[N+](=O)[O-])OCO2	4	-12	96	5	6	3.0*	i	15	eIF4H FP inh retest=46;PABP FP inh retest=62*
COc1ccc(NC(=O)CSc2nc3c(c(=O)n2-c2ccc(F)cc2)SCC3)cc1	-7	-8	-9	-1	0	-11	i	-2
Cc1cnc(-c2nnc(N(C)C(=O)c3cccnc3)s2)cn1	-24	-3	-11	-1	0	-4	i	-56
Cc1cc(/C=N/NC(=O)C(=O)NCc2ccccn2)c(C)n1-c1cccc(Br)c1	16	x	11	5	1	-7	x	12
O=C(NNC(=O)c1cccnc1SCc1cccc([N+](=O)[O-])c1)c1ccc(F)cc1	-11	-25	-8	-5	-14	-7	i	x
C#CCOCCOCCOCCNc1nc(N2CCN(C(=O)[C@H]([C@@H](C)CC)n3cc([C@@H](N)CC(C)C)nn3)CC2)nc(N2CCN(C(=O)[C@H](CCCCN)n3cc([C@@H](N)CO)nn3)CC2)n1	13	25	28	4	4	42	i	x
